mIDH1 inhibitor: blocks human mutant IDH1 R132H enzyme. IDH1-R132H enzyme, NADPH consumption, diaphorase/resazurin fluorescence. Potency, µM (highest dose often 76.6 µM), for the others: top-dose activity change, negative = inhibition, usual class: inhibitors. 390,000 tested, 0.093% active; also: potency is read from the fitted curve at half-maximal effect; % is scaled to controls: 0 for no effect and ±100 for the full control effect; nearly all actives have a fitted effect of over 65% in size
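IDH1-R132H (0.5 ug/mL dispensed) in pH 7.5 Tris buffer was preincubated 30 min with compound, then given a substrate mix of 0.016 mM NADPH and 2 mM alpha-KG for 80 min at room temperature; remaining NADPH was read by diaphorase/resazurin fluorescence.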
Vif-APOBEC3F blk: Vif-A3F binding inhibition; HeLa A3F-eYFP + Vif (tagged APOBEC3F with the HIV-1 protein that degrades it), YFP fluorescence increase; Potency, µM (top dose mostly 46.1 µM), without a hit: at the highest dose activity, negative = active; 390,000 tested, 0.2% active; also: potency is read from the fitted curve at half-maximal effect; % of control where 0% means no effect; nearly all actives have a fitted effect of over 65% in size
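HeLa cells stably expressing Vif plus C-terminally eYFP-tagged A3F were seeded, incubated overnight at 37 deg C, dosed with compound, incubated overnight again at 37 deg C. Yellow fluorescence (Ex 488/Em 500-530) reported blocked Vif-mediated A3F-eYFP degradation.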
Vif-A3G inh: inhibitors of Vif-APOBEC3G interaction; AID 602310; 410,000 tested, 0.076% active; Q9HC16; Potency, µM (top dose mostly 46.1 µM), without a hit: at the highest dose activity, negative = active, actives largely listed as inhibitors; HeLa A3G-eYFP + Vif (tagged APOBEC3G with the HIV-1 protein that degrades it), YFP fluorescence, overnight;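 also: potency is read from the fitted curve at half-maximal effect; % is scaled to controls: 0 for no effect and ±100 for the full control effect; nearly all actives have a fitted effect of over 60% in size; hits raise eYFP signal because A3G escapes Vif-driven loss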
Target sequence (Q9HC16 whole entry, looked up): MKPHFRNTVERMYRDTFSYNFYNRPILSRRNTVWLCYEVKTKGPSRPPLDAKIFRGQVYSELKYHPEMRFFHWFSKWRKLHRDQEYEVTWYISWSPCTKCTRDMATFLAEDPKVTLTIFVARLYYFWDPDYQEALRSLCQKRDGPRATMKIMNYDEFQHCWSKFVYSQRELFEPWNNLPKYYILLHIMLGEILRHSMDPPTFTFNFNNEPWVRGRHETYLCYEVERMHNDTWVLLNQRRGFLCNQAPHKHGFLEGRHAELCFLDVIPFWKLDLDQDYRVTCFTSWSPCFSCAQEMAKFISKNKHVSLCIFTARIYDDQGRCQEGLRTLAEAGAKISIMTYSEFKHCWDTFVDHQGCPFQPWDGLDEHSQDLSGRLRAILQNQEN
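HeLa cells stably expressing Vif and C-terminally eYFP-tagged A3G, seeded overnight at 37 deg C, then exposed to compound by pintool overnight at 37 deg C. Rise in yellow fluorescence (Ex 488/Em 500-530, Acumen) marks blocked Vif-driven A3G degradation.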
LDHA inh: inhibitors of human lactate dehydrogenase A; purified LDHA, NADH/diaphorase-resazurin fluorescence; active compounds read low; 480,000 tested, 0.15% active; P00338; activity change, % (values are at about 110 or 230 µM); in the data active = activity change below about -30%; inconclusive = mostly about -25% to -30%;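 also: plate controls were DMSO wells for no effect and wells without enzyme for full effect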
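Human LDH5 (2 nM) was incubated with 0.06 mM NADH and 0.2 mM pyruvate for 5 min at room temperature in Tris pH 7.4. Remaining NADH was coupled through diaphorase/resazurin, and resorufin fluorescence was read at 0 and 20 min.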
USP1-UAF1 inh: USP1/UAF1 (human) deubiquitinase inhibition | O94782 | recombinant USP1/UAF1, Ub-Rhodamine cleavage fluorescence | Potency, µM (doses to about 57.1 µM), for inactives: at the highest dose activity change, negative = inhibition, actives largely listed as inhibitors | 390,000 tested, 0.23% active; also: potency is read from the fitted curve at half-maximal effect; % is scaled to controls: 0 for no effect and ±100 for the full control effect; nearly all actives have a fitted effect of over 60% in size; inactives centre near -12
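1 nM enzyme complex + cpd, 15 min RT; start with Ub-Rho 150nM final; kinetic fluorescence ex 480/em 540, 6 reads q60 s. Buffer 50mM HEPES pH 7.8, 0.5mM EDTA, 0.1 mg/ml BSA, 1mM TCEP, 0.01% Tween-20.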
TrxR1 substrate: is turned over as a substrate by rat TrxR1. Potency, µM (highest dose often 114 µM), for inactives: at the highest dose activity change, negative = substrate turnover. O89049. 390,000 tested, 0.01% active. purified TrxR1 substrate turnover, NADPH consumption readout. AID 588456; also: potency is read from the fitted curve at half-maximal effect; % is scaled to controls: 0 for no effect and ±100 for the full control effect; nearly all actives have a fitted effect of over 50% in size
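Rat TrxR1, dispensed at 90 nM, was prereduced with 400 uM NADPH (final) for 5 min at ~22 deg C, then incubated with compound 15 min before 400 uM selenite. A first-read NADPH fluorescence drop versus no-compound background flagged substrates.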
Glioma ERSR ind: induces the endoplasmic reticulum stress response in human glioma cells. 420,000 tested, 0.02% active. U87-MG GRP78 promoter luciferase reporter, 16 h. AID 602332. Potency, µM, for inactives: at the top dose activation, actives largely listed as activators; also: potency is read from the fitted curve at half-maximal effect; series mostly up to about 76 µM; % of control where 0% means no effect; nearly all actives have a fitted effect of over 35% in size
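Stably transfected U87-MG human glioma cells carrying a GRP78-based luminescent sensor were seeded at 1000 cells/well, pin-dosed with compounds and incubated 16 h. Luciferase reagent was then added, and end-point luminescence was read after 10 min at room temperature.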
PI4K2A inh: blocks human PI4K2A kinase activity. activity change, negative = inhibition, % at 76.9 µM. 420,000 tested, 0.13% active. AID 1346378. purified PI4K2A, ADP-Glo luminescence, 1 h; active compounds read low; in the data active = activity change below about -50%; inconclusive = mostly about -30% to -49%;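 also: -100% = wells without enzyme as full effect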
Target sequence (Q9BTU6 whole entry, looked up): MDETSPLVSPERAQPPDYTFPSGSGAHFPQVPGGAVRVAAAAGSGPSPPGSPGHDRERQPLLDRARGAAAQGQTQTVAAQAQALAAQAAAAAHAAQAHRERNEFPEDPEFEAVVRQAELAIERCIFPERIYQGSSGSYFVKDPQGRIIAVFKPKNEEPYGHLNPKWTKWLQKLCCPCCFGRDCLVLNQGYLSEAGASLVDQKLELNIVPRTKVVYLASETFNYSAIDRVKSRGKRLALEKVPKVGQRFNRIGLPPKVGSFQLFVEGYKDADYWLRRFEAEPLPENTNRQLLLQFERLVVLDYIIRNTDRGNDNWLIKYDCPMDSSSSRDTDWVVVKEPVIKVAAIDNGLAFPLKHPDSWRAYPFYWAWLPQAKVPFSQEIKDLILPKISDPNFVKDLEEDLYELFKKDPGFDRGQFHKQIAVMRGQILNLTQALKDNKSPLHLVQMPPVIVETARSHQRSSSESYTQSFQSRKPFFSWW
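In this quantitative HTS, ADP production by PI4K2A was quantified luminescently after 1 h at ambient temperature; 100 microM adenosine served as plate-quality control.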
* marks the source's active call; other numbers are inactive results; ? = inconclusive; · = not tested or not shown; & = joins results of further samples; [ ] = another dose, or the depositor's remark. Unless noted, calls follow the shape of the dose curve; as a rule, active = well fitted curve in the direction sought with a large enough effect; inconclusive = small, poorly fitted or top-dose-only effect, or another doubt; inactive = no such curve, though single readings can be large; an effect the other way counts as inactive or inconclusive. The list is partial (hit frequency here may not be typical).

SMILES	mIDH1 inhibitor	Vif-APOBEC3F blk	Vif-A3G inh	LDHA inh	USP1-UAF1 inh	TrxR1 substrate	Glioma ERSR ind	PI4K2A inh
O=C(O)CCCCCCCCCC(=O)c1cccs1	3.0%	-11.3%	1.8%	-5.1	-11.0%	-0.1%	-9.4%	-12.6
COc1ccc(CNc2nc3c(-c4cccc(F)c4)nnn3c3ccccc23)cc1	-12.9%	?	-2.6%	-1.9	?	20.5%	1.6%	-14.3
CCN1C(=O)C2(C(C(=O)c3cc4ccccc4o3)=C(O)C(=O)N2CCCN(C)C)c2ccccc21 (stereo unspecified)	-1.5%	-1.7%	-1.8%	-8.0	0.6%	-7.5%	-0.5%	-2.3
O=C1C(=O)N(CCN2CCOCC2)C(c2cccc(Cl)c2)/C1=C(\O)c1ccc2c(c1)OCCO2 (stereo unspecified)	-8.1%	8.1%	1.2%	-17.8	-23.5%	-12.3%	-3.2%	2.2
O=C(O)c1cccc(NS(=O)(=O)c2cccc3cccnc23)c1	-0.3%	1.2%	0.1%	-4.3	-14.6%	-2.6%	-2.7%	-3.3
Cc1nn(CCCC(=O)NCc2ccccc2Cl)c(=O)c2nccn12	10.2%	-6.6%	2.2%	-4.1	-20.1%	14.1%[57.1 µM]	-1.1%	3.9
O=C(Nc1ccc(Cl)cc1)C1CCN(c2nc3ccccc3nc2C(F)(F)F)CC1	8.3%	-1.9%	5.2%	-6.7	-22.4%	3.5%[57.1 µM]	-0.9%	-6.4
CCOC(=O)N1CCN(C(=S)NC2CCCC2)CC1	7.0%	1.3%	-1.8%	-1.8	-10.5%	3.3%	-4.6%	8.9
CN1CCN(c2nc3c(S(=O)(=O)c4ccc(Cl)cc4)nnn3c3ccsc23)CC1	-17.2%	-4.1%	0.1%	-9.0	-13.6%	-0.1%	-1.2%	1.3
O=C(C1CC(=O)N(c2ccc(F)cc2)C1)N1CCN(c2ccc(F)cc2)CC1 (stereo unspecified)	0.8%	-22.8%	3.1%	-5.4	-5.2%	-9.1%	-1.5%	0.0
Nc1c(-c2ccccc2)cnn1C1CCS(=O)(=O)C1 (stereo unspecified)	6.6%	-0.7%	2.5%	-2.7	-12.1%	-8.8%	-0.2%	3.4
Cc1cc(C)n(-c2ccc(Oc3ccccc3)c(S(=O)(=O)O)c2)n1	14.6%	-6.6%	1.2%	-4.4	-18.7%	5.4%[57.1 µM]	-0.3%	0.0
COc1cccc(C(=O)Nc2c(C(=O)N3CCN(c4ccc(F)cc4)CC3)oc3ccccc23)c1	0.5%	-7.3%	0.8%	-6.0	-10.5%	-1.7%	-0.5%	1.0
CC(C)=CCCC(C)CN1CCC(N2CCC(C(=O)NC(C)C)CC2)CC1 (stereo unspecified)	4.3%	-2.6%	1.9%	-6.2	2.4%	0.4%	-1.5%	-0.4
COc1c(F)c(F)c(C(=O)Nc2cccc(Cl)c2N2CCOCC2)c(F)c1F	5.6%	1.8%	-6.4%	0.0	-7.6%	8.5%[57.1 µM]	-3.7%	0.9
Cc1c(C(=O)Nc2c(F)cc(F)cc2Br)sc2ncn(CC(=O)N3CCCC3)c(=O)c12	-8.8%	2.3%	-0.5%	-2.6	-9.3%	-4.7%	-3.0%	1.0
COC(=O)c1c(NC(=O)COc2c(C)ccc(C)c2C)sc2c1CCC(C)C2 (stereo unspecified)	16.8%	2.9%	2.4%	2.7	-4.6%	4.1%	0.0%	-0.1
Cc1cc2c(cc3c(SCc4cccc(F)c4)nnc(C)n32)o1	·	·	·	-2.1	-22.6%	-2.1%	·	-2.1
CCCOc1ccc(C(O)C(CN2CCOCC2)c2ccccc2)cc1 (stereo unspecified)	3.3%	0.9%	-3.2%	1.8	-26.1%	-2.5%	-8.9%	1.7
Cc1ccc(NC(=O)Cn2nc(C)n3cccc3c2=O)c(C)c1	-7.6%	0.9%	8.5%	-11.2	-17.1%	2.5%	-0.9%	1.3
CCOc1ccc(C(=O)C(c2ccccc2)N2CCOCC2)cc1 (stereo unspecified)	13.2%	-4.3%	1.1%	2.2	-15.1%	1.9%	-3.8%	-4.0
CCOC(=O)c1cccc(NC(=O)c2cc3c(=O)n(Cc4cccnc4)ccc3nc2C)c1	0.0%	0.1%	0.1%	4.0	-7.7%	2.1%[57.1 µM]	-3.0%	-0.8
O=C(C1=C(O)C(=O)N(CC2CCCO2)C1c1ccccc1Cl)c1ccco1 (stereo unspecified)	6.9%	7.0%	-4.8%	2.7	-8.4%	-7.5%	-2.1%	-1.6
Cc1cccc(-c2nnn3c2nc(NCCc2ccc(S(N)(=O)=O)cc2)c2ccccc23)c1	-12.4%&-2.4%	-13.3%&-31.7%	-5.1%&1.9%	-0.7&-1.8	?	50.6%&49.1%[activator]	3.0%&1.3%	9.1&-5.5
Cc1cc(SC(C)C(=O)O)nc2ccccc12 (stereo unspecified)	-0.6%	-9.2%	-1.2%	0.1	-19.9%	0.0%	-3.3%	1.7
Continued:
SMILES	mIDH1 inhibitor	Vif-APOBEC3F blk	Vif-A3G inh	LDHA inh	USP1-UAF1 inh	TrxR1 substrate	Glioma ERSR ind	PI4K2A inh
O=C(Nc1cccc(S(=O)(=O)NC2=NCCCCC2)c1)c1cccnc1Cl	6.7%	-0.8%	4.7%	-3.3	-17.8%	4.4%	-1.5%	-0.3
O=C(COc1ccc(S(=O)(=O)NCc2ccccc2)cc1Cl)N1CCOCC1	9.8%	-18.2%	-6.8%	-3.1	-5.2%	5.5%	-4.8%	9.0
COc1ccc(OC(=O)c2cccnc2)cc1	3.2%	0.7%	5.3%	-0.5	-14.3%	8.2%[57.1 µM]	-4.7%	-2.9
Cc1ccc(NC(=O)CSc2nncn3c2cc2sccc23)cc1F	-2.5%	2.2%	?	-4.7	-1.3%	-2.0%	-3.9%	-2.2
COc1cc(OC)cc(C(=O)N2CCC(n3c(C)nc4cc(F)ccc43)CC2)c1	11.0%	·	-3.7%	0.6	-12.7%	-2.0%	-2.9%	1.7
Cc1ccc(N(C(=O)c2csnn2)C(C(=O)NC2CCCCC2)c2ccccn2)cc1 (stereo unspecified)	0.6%	-8.6%	-4.9%	-4.2	-16.8%	-8.2%	-4.2%	4.0
O=C(CSc1n[nH]c(-c2ccccc2)n1)NC1CCCCC1	7.4%	1.1%	-1.1%	-1.8	-12.9%	-2.9%	0.3%	-6.3
Cc1nn2c(-c3cccc(NC(=O)CSc4nc5ccccc5o4)c3)nnc2c2ccccc12	2.3%	2.8%	-13.6%	-5.2	-23.8%	10.2%[57.1 µM]	-13.2%	-4.2
CCn1c(=O)c2c(nc(SCC(=O)NCC3CCCO3)n2C)n(C)c1=O (stereo unspecified)	2.9%	-0.1%	2.9%	5.3	-10.5%	-5.5%	-0.5%	3.8
CCOc1ccc(NC(=O)CSc2nc(-c3ccc(F)cc3)cc(C(F)(F)F)c2C#N)cc1	9.3%	-20.0%	3.5%	-14.6	-19.2%	-3.8%	0.1%	5.4
Cc1ccc2[nH]c(=O)c(-c3noc(C(C)C)n3)cc2c1	7.8%	2.1%	-6.6%	1.8	-20.6%	44.0%[activator]	-0.7%	1.8
COc1cc(OC)cc(C(=O)Nc2ccccc2-c2nc3ccccc3s2)c1	-14.8%	0.1%	0.1%	-7.0	-5.7%	9.1%	-4.1%	-0.4
O=C(CSc1nc2ccccc2nc1Cc1ccc(Cl)cc1)NCCc1ccccc1	-20.6%	3.1%	6.6%	-3.6	-2.6%	8.2%[57.1 µM]	-3.8%	-0.1
COc1ccc(NC(=O)c2cc3c(=O)n(Cc4cccs4)ccc3nc2C)cc1	-9.6%	-11.5%	-3.1%	-2.2	-22.0%	-1.5%[57.1 µM]	1.7%	-2.5
Cc1nnc(SCC(=O)Nc2ccc3c4c(cccc24)CC3)n1C	6.6%	3.7%	-4.2%	-3.7	-10.5%	0.3%	-0.6%	5.2
Cc1cc2c(cc3c(=O)n(CC(=O)NCc4ccccc4Br)ncn32)s1	9.7%	-4.3%	-6.4%	-0.3	9.8%	7.2%	-3.2%	1.3
Cc1cccc(C(=O)Nc2ccc3oc(-c4cccc5c(Br)cccc45)nc3c2)c1	-9.3%	-0.1%	1.8%	-3.6	-13.3%	33.2%	-3.4%	-6.6
CC(=O)c1cccc(NC(=O)c2cnn(-c3cccc(C)c3)c2-n2cccc2)c1	2.4%	-3.2%	7.0%	0.2	-1.6%	1.9%[57.1 µM]	-0.3%	-2.0
Cc1csc2nc(COc3ccccc3NC(=O)c3ccc(C(C)(C)C)cc3)cc(=O)n12	-0.6%	-3.9%	-1.6%	1.2	-26.7%	8.8%	-1.2%	-11.7
COc1ccc(CC(=O)c2ccccc2C(=O)O)cc1	0.0%	-5.7%	-0.5%	2.1	-5.3%	-6.1%	-3.8%	-0.8
CC(C)CCNC(=O)CSc1nc2ccccc2s1	14.4%	-0.8%	0.7%	-5.8	-19.9%	-4.1%	-2.2%	-7.8
O=C(NCc1ccccc1)c1ccc(COCC(F)(F)F)o1	9.8%	1.3%	0.2%	-0.3	-10.2%	2.6%	-1.7%	-1.8

No new results follow: 3 of the compounds above.
SMILES	mIDH1 inhibitor	Vif-APOBEC3F blk	Vif-A3G inh	LDHA inh	USP1-UAF1 inh	TrxR1 substrate	Glioma ERSR ind	PI4K2A inh
O=C(Nc1cccc(S(=O)(=O)NC2=NCCCCC2)c1)c1cccnc1Cl	6.7%	-0.8%	4.7%	-3.3	-17.8%	4.4%	-1.5%	-0.3
O=C(COc1ccc(S(=O)(=O)NCc2ccccc2)cc1Cl)N1CCOCC1	9.8%	-18.2%	-6.8%	-3.1	-5.2%	5.5%	-4.8%	9.0
COc1ccc(OC(=O)c2cccnc2)cc1	3.2%	0.7%	5.3%	-0.5	-14.3%	8.2%[57.1 µM]	-4.7%	-2.9

From PubChem
